HIV TAR-Tat: HIV-1 TAR-Tat binding disruption; AID 1259389; z-score (concentration not given with the values); 100,000 compounds, 0.6% hits; HIV-1 TAR RNA, Tat peptide displacement FRET; active compounds read high;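 further: score is relative to mean and SD of negative controls; some compounds called inactive have numbers as strong as hits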
CDC25B-CDK2 inh: human CDC25B-CDK2/CyclinA binding inhibition | P30305+P24941 | HTRF CDC25B-CDK2/CyclinA binding, anti-His/anti-Flag; active compounds read high | z-score (concentration not given with the values) | 94,000 compounds, 0.72% hits;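 further: score is relative to mean and SD of negative controls; strong numbers were not always called active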
Starred values were filed as active, the others as inactive; & = joins results of further samples.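 How the source made its calls: active means z-score from 3 up in half or more of its runs; inactive means the rest.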

`Cn1c(SCc2ccccc2Cl)nc(=O)c2c1NC(=O)CC2c1ccc2c(c1)OCCO2` (configuration not stated) gave HIV TAR-Tat 0.33 and CDC25B-CDK2 inh 0.01.
CC1CCCC(N(Cc2ccco2)C(=O)NCc2noc3ccccc23)C1C (configuration not stated) was read as HIV TAR-Tat 0.35.
For CC(C)C(C(=O)NCc1ccco1)N1Cc2ccccc2C1=O (configuration not stated) the results were HIV TAR-Tat -1.39.
For O=S(=O)(NCCc1csc2nc(-c3ccc(F)cc3)nn12)c1ccc(Cl)cc1 the results were HIV TAR-Tat 0.53.
For CCCOC(=O)C1=C(C)NC2=C(C(=O)CC(C)(C)C2)C1c1cc(Cl)c(O)c(OC)c1 (configuration not stated) the results were HIV TAR-Tat 0.07 and CDC25B-CDK2 inh -3.38.
O=S(=O)(c1ccc(Cl)cc1)N(CCc1ccccn1)c1ccccc1 was read as CDC25B-CDK2 inh -1.1.
Cc1nn(-c2ccccc2)nc1C(=O)Nc1ccccc1C(=O)NCC1CC1 was read as CDC25B-CDK2 inh -2.1.
`O=C(NC1CCCCC1)c1cnc2sc3c(n2c1=O)CCCC3` gave HIV TAR-Tat 0.42.
Cn1c(=O)c2cn(-c3ccc(O)cc3)cc2n(C)c1=O was read as HIV TAR-Tat -0.97 and CDC25B-CDK2 inh -1.01.
For O=c1cc(CO)oc(CN2CCN(c3ccccc3F)CC2)c1O the results were CDC25B-CDK2 inh 0.43.
For Nc1ccc(CCNc2ncnc3c2ncn3C2OC(CO)C(O)C2O)cc1 (configuration not stated) the results were CDC25B-CDK2 inh -1.83.
`O=C(O)CC1SC(c2ccc3c(c2)OCO3)=NC1=O` (configuration not stated) gave CDC25B-CDK2 inh -0.67.
`Cc1oc(-c2ccccc2)nc1Cn1c(=O)n(CC2CCCO2)c(=O)c2ccccc21` (configuration not stated) gave HIV TAR-Tat -0.66 and CDC25B-CDK2 inh -3.39.
Cc1ccc(CNC(=O)Cn2cnc(S(=O)(=O)N3CCCC3)c2)o1 was read as HIV TAR-Tat -0.72.
O=C(O)CC(CC(=O)Nc1ccc(Oc2ccccc2)cc1)c1ccccc1 (configuration not stated) was read as CDC25B-CDK2 inh -0.57.
CCn1cc(S(=O)(=O)c2ccc(C)cc2C)c(=O)c2cc(F)c(N3CCN(C)CC3)cc21 was read as HIV TAR-Tat -0.21.
`COC(=O)c1ccc(C2NC(=O)c3c(sc4c3CCN(C)C4)N2)cc1` (configuration not stated) gave HIV TAR-Tat -3.88 and CDC25B-CDK2 inh 1.15.
O=C(O)C1c2ccccc2C(=O)N(C2CCCCC2)C12CCCCC2 (configuration not stated) was read as CDC25B-CDK2 inh 0.24.
Screening Cc1ccc(-c2nc3nc(C(F)(F)F)cc(=O)n3[nH]2)cc1 returned HIV TAR-Tat 1.63 and CDC25B-CDK2 inh -1.13.
`Cn1c(=O)c2c(-c3ccccc3)n3c(c2n(C)c1=O)C(c1cccc(O)c1O)Nc1ccccc1-3` (configuration not stated) gave HIV TAR-Tat 0.24 and CDC25B-CDK2 inh -0.75.
`COc1ccc(S(=O)(=O)Nc2cc(C)ccn2)c(C)c1C` gave HIV TAR-Tat -0.33 and CDC25B-CDK2 inh -1.41.
`Cc1cc(C(=O)Nc2sccc2C(=O)NCc2ccc3c(c2)OCO3)no1` gave HIV TAR-Tat -3.69.
Screening Cc1ccsc1CN(Cc1ccco1)C(=O)COc1ccc(Br)cc1 returned HIV TAR-Tat 0.57 and CDC25B-CDK2 inh 0.5.
`Clc1ccc(-c2nc(NCC3CCCO3)c3ccccc3n2)cc1` (configuration not stated) gave CDC25B-CDK2 inh -1.46.
Screening CC(C)OC(=O)COc1cc(OCC(=O)OC(C)C)c2c(c1)oc(=O)c1ccccc12 returned CDC25B-CDK2 inh -1.19.
Screening CCOC(=O)/C(C#N)=C/c1cn(-c2ccccc2)nc1-c1ccccc1 returned CDC25B-CDK2 inh -1.65.
For Cc1cc(Nc2cccc(Cl)c2)n2nc(-c3ccco3)nc2n1 the results were HIV TAR-Tat 0.68.
Screening O=c1c(-c2ccc(Cl)cc2)c(N2CCN(C3CCCCC3)CC2)c1=O returned HIV TAR-Tat -0.1.
`COc1ccc(S(=O)(=O)Nc2cc3c(cc2Sc2ccccc2)n(C)c(=O)n3C)cc1` gave HIV TAR-Tat 1.92.
`COc1ccc2cc3n(c2c1)CC(C)(C(=O)NC1CCCC1)N(C1CCCC1)C3=O` (configuration not stated) gave HIV TAR-Tat 2.62.
C=CCSc1ncc(Cl)c(C(=O)NCc2ccc3c(c2)OCO3)n1 was read as HIV TAR-Tat 1.72 and CDC25B-CDK2 inh -1.09.
Screening Cn1c(=O)n(Cc2ccccc2)c(=O)c2c1nc1n2CCN1Cc1ccco1 returned HIV TAR-Tat 2.41 and CDC25B-CDK2 inh -2.1.
COc1ccc(OC)c(C2=NS(=O)(=O)N(C)C(C(=O)NCc3ccco3)=C2)c1 was read as HIV TAR-Tat 0.81 and CDC25B-CDK2 inh -2.3.
Screening O=C1CCS(=O)(=O)N1c1ccc(S(=O)(=O)N2CCc3ccccc3C2)cc1 returned HIV TAR-Tat 0.09 and CDC25B-CDK2 inh -1.33.
Screening Cc1nn(-c2ccccc2)c2c1C(c1cccnc1)C1=C(CCCC1=O)N2 (configuration not stated) returned HIV TAR-Tat -0.17 and CDC25B-CDK2 inh -0.47.
Screening Cc1noc2ncn(CC(=O)NCCN3CCOCC3)c(=O)c12 returned HIV TAR-Tat 1.51.
`Oc1ccc(NC(c2nnc(-c3ccccc3)o2)c2ccccc2F)cc1` (configuration not stated) gave HIV TAR-Tat 1.04.
For COc1ccc(NC(=O)CS(=O)(=O)c2ccc3c(c2)S(=O)(=O)N=CN3)cc1 the results were HIV TAR-Tat -0.67 and CDC25B-CDK2 inh -1.98.
Cc1ccc(C2/C(=C(\O)c3ccc(F)cc3)C(=O)C(=O)N2CCCN(C)C)cc1 (configuration not stated) was read as HIV TAR-Tat 2.99 and CDC25B-CDK2 inh -1.56.
`COc1nncc(-c2cnnc(SC)n2)n1` gave CDC25B-CDK2 inh -0.93.
For O=C(CSc1nc2ccccc2c(=O)n1Cc1ccco1)NC1CCCC1 the results were CDC25B-CDK2 inh -0.14.
For COC(=O)C1=C(C)NC2=C(C(=O)CCC2)C1c1ccc(OC)cc1OC (configuration not stated) the results were HIV TAR-Tat 0.27 and CDC25B-CDK2 inh -0.8.
Cn1cc(-c2cc3n(n2)CCCN3C(=O)CCC(=O)NCc2ccco2)c2ccccc21 was read as HIV TAR-Tat 2.26.
COc1ccc(Br)c(C(=O)/C(C#N)=N/O)c1 was read as CDC25B-CDK2 inh -1.63.
`O=C(O)c1ccccc1N1CCCCC1` gave CDC25B-CDK2 inh -1.7.
Cn1nnnc1SCC(=O)Nc1ccc2nc(SCc3ccc(Br)cc3)sc2c1 was read as CDC25B-CDK2 inh -5.57.
`COc1ccc(C2CC(=O)C3=C(C2)Nc2ccccc2NC3c2ccccc2OC(C)C)cc1OC` (configuration not stated) gave HIV TAR-Tat -1.77 and CDC25B-CDK2 inh 0.88.
For Cc1ccc(N(C)S(=O)(=O)c2ccc3c(c2)NC(=O)C(C)S3)cc1 (configuration not stated) the results were HIV TAR-Tat 1.95.
For CCOc1ccc(C2c3c(oc4ccccc4c3=O)C(=O)N2c2nnc(C)s2)cc1OC (configuration not stated) the results were HIV TAR-Tat 1.07 and CDC25B-CDK2 inh -0.98.
O=C1CNC(=S)N1CCc1ccccn1 was read as CDC25B-CDK2 inh -1.97.
CCOc1ccc(NC(=O)N2CCCC2C(=O)O)cc1 (configuration not stated) was read as HIV TAR-Tat -0.79 and CDC25B-CDK2 inh -1.95.
Cc1ccc(O)c(-c2n[nH]c3c2C(c2ccc(F)cc2)N(CCO)C3=O)c1 (configuration not stated) was read as HIV TAR-Tat 0.63 and CDC25B-CDK2 inh -0.85.
Screening Cc1cccc(NC(=O)CCc2nnc3ccc(NCc4ccco4)nn23)n1 returned HIV TAR-Tat 1.87.
`CC1(C)Cc2ccccc2C(c2cc3ccccc3oc2=O)=N1` gave CDC25B-CDK2 inh -2.02.
For Cc1ccc(-c2noc(-c3ccccc3Cl)n2)cc1 the results were HIV TAR-Tat 2.42.
For Cc1cccc(Cn2c(C)nc3cc(C)c(C)cc32)c1 the results were HIV TAR-Tat -0.74 and CDC25B-CDK2 inh -0.08.
`Nc1c(-c2nc(-c3ccc(F)cc3)no2)nnn1-c1ccc(Br)cc1` gave HIV TAR-Tat 0.62.
For CN(C)CCCNC(=O)c1c(O)nc2ccccn2c1=O the results were HIV TAR-Tat -0.62 and CDC25B-CDK2 inh -1.42.
`O=C(NC1CCCC1)C1c2c(ccc3ccccc23)OCC(=O)N1c1cc(F)ccc1F` (configuration not stated) gave HIV TAR-Tat 2.49.
CC(C)Cc1nc(N2CCCCC2)c(C#N)c2c1COC(C)(C)C2 was read as HIV TAR-Tat 2.41 and CDC25B-CDK2 inh -1.1.
For N/C(=N\OC(=O)c1c(F)cccc1F)c1ccc(Cl)cc1 the results were CDC25B-CDK2 inh -0.71.
For Cc1nc(-c2cccnc2)sc1CCNS(=O)(=O)c1ccc2c(c1)OCCO2 the results were HIV TAR-Tat -1.43.
C=CCSc1nc2c(c(=O)[nH]1)C(c1ccc(C)cc1C)CC(=O)N2 (configuration not stated) was read as HIV TAR-Tat 1.99 and CDC25B-CDK2 inh -4.44.
For CCN1C(=O)c2cccc3c(S(=O)(=O)N(C)c4ccccc4)ccc1c23 the results were HIV TAR-Tat -1.95 and CDC25B-CDK2 inh -3.37.
O=C(c1cnn(-c2ccc(Cl)cc2)c1C1CCNCC1)N1CCc2ccccc2C1 was read as HIV TAR-Tat 0.57.
For COC(=O)C1=C(C)NC2=C(C(=O)CC(c3ccc(OC)cc3)C2)C1c1ccccc1Br (configuration not stated) the results were CDC25B-CDK2 inh 0.25.
Cc1ccn2cc(-c3ccc(C)c(NS(=O)(=O)c4ccccc4)c3)nc2c1 was read as HIV TAR-Tat -0.67 and CDC25B-CDK2 inh -0.91.
CCCc1[nH]nc2c1C(c1ccccc1Cl)C(C#N)=C(N)O2 (configuration not stated) was read as HIV TAR-Tat 1.96 and CDC25B-CDK2 inh -2.49.
O=C(NCC1CCN(C2CCCC2)C1)Nc1ccc(Cl)cc1 (configuration not stated) was read as HIV TAR-Tat 1.68 and CDC25B-CDK2 inh -1.92.
`CCn1ncc(CNC(=O)c2cnn3c(C(F)F)cc(-c4ccc(C)cc4)nc23)c1C` gave HIV TAR-Tat 0.68 and CDC25B-CDK2 inh -0.43.
Cc1ccc(NC2c3ncccc3C(=O)N2c2ccc(C)cc2)cc1 (configuration not stated) was read as HIV TAR-Tat 3.75 and CDC25B-CDK2 inh 0.17.
Nc1ncn(S(=O)(=O)c2ccccc2)n1 was read as CDC25B-CDK2 inh -0.54.
`OCCN1CCN(c2ncnc3sc4c(c23)CCCC4)CC1` gave HIV TAR-Tat 1.69 and CDC25B-CDK2 inh 1.17.
COc1ccc(OC)c(C2Sc3ccccc3NC3=C2C(=O)c2ccccc23)c1 (configuration not stated) was read as HIV TAR-Tat -6.31 and CDC25B-CDK2 inh -1.13.
Screening O=C(Cn1c(NCCO)nc2ccccc21)c1cccc(Br)c1 returned HIV TAR-Tat -0.88 and CDC25B-CDK2 inh -0.1&1.47.

Among those listed so far, 6 contain bromine.
Screening Cc1ccsc1CN(Cc1ccco1)C(=O)COc1ccc(Br)cc1 returned HIV TAR-Tat 0.57 and CDC25B-CDK2 inh 0.5.
COc1ccc(Br)c(C(=O)/C(C#N)=N/O)c1 was read as CDC25B-CDK2 inh -1.63.
Cn1nnnc1SCC(=O)Nc1ccc2nc(SCc3ccc(Br)cc3)sc2c1 was read as CDC25B-CDK2 inh -5.57.
`Nc1c(-c2nc(-c3ccc(F)cc3)no2)nnn1-c1ccc(Br)cc1` gave HIV TAR-Tat 0.62.
For COC(=O)C1=C(C)NC2=C(C(=O)CC(c3ccc(OC)cc3)C2)C1c1ccccc1Br (configuration not stated) the results were CDC25B-CDK2 inh 0.25.
Screening O=C(Cn1c(NCCO)nc2ccccc21)c1cccc(Br)c1 returned HIV TAR-Tat -0.88 and CDC25B-CDK2 inh -0.1&1.47.

Carrying on.
For CCc1nn(CC(=O)N2CCN(C(=O)c3ccco3)CC2)c(=O)c2cc3sccc3n12 the results were HIV TAR-Tat 0.04 and CDC25B-CDK2 inh 0.45.
Screening COc1cccc(Cn2c(SCc3cccc(F)c3)nc3cccnc32)c1 returned HIV TAR-Tat -0.31.
CC1=C(C(=O)N2CCc3ccccc3C2)C2(CCCCC2)OC1=O was read as HIV TAR-Tat 1.53 and CDC25B-CDK2 inh -0.64.
For O=C(C1CCN(c2ncnc3c2nc2n3CCCCC2)CC1)N1CCc2ccccc2C1 the results were HIV TAR-Tat 2.72.
Screening CCN(CC)S(=O)(=O)c1ccc(NC(=O)Nc2cn(CC(C)C)c(=O)c3ccccc23)cc1 returned HIV TAR-Tat 1.23.
CCC12CN3CC(CC)(CN(C1)C3c1ccccc1Cl)C2O (configuration not stated) was read as HIV TAR-Tat 0.44 and CDC25B-CDK2 inh -0.76.
Screening COc1ccc(CNc2ncnc3cc4nn(C)cc4cc23)cc1 returned HIV TAR-Tat -2.32.
c1ccc(-n2nnnc2Oc2cccc(CNCCN3CCOCC3)c2)cc1 was read as HIV TAR-Tat 1.29.

Sorted by count of non-hydrogen atoms (smallest number first): six of the compounds above
CCC12CN3CC(CC)(CN(C1)C3c1ccccc1Cl)C2O (configuration not stated) was read as HIV TAR-Tat 0.44 and CDC25B-CDK2 inh -0.76.
Screening O=C(Cn1c(NCCO)nc2ccccc21)c1cccc(Br)c1 returned HIV TAR-Tat -0.88 and CDC25B-CDK2 inh -0.1&1.47.
CC1=C(C(=O)N2CCc3ccccc3C2)C2(CCCCC2)OC1=O was read as HIV TAR-Tat 1.53 and CDC25B-CDK2 inh -0.64.
Screening COc1cccc(Cn2c(SCc3cccc(F)c3)nc3cccnc32)c1 returned HIV TAR-Tat -0.31.
For O=C(C1CCN(c2ncnc3c2nc2n3CCCCC2)CC1)N1CCc2ccccc2C1 the results were HIV TAR-Tat 2.72.
Screening CCN(CC)S(=O)(=O)c1ccc(NC(=O)Nc2cn(CC(C)C)c(=O)c3ccccc23)cc1 returned HIV TAR-Tat 1.23.

Source: PubChem BioAssay
